# TRPML1 blocker – blocks the human TRPML1 channel. Q9GZU1. TRPML1-inducible cells, Ca2+ dye fluorescence, FDSS; active compounds read low; inhibition of EC80 agonist-evoked calcium signal. activity change, negative = inhibition, % (test concentration not listed). actives 0.02% (n = 390,000); in the data active means activity change below about -50%; inconclusive means about -30% to -50%; inactive means above about -30%;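 also: stimulus is agonist 54-4 at its EC80 concentration; % is scaled to controls: 0 for no effect and ±100 for the full control effect; compound concentration not given in the record; the text of the record puts the active cut at -80%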
# Target sequence (Q9GZU1 whole entry, looked up): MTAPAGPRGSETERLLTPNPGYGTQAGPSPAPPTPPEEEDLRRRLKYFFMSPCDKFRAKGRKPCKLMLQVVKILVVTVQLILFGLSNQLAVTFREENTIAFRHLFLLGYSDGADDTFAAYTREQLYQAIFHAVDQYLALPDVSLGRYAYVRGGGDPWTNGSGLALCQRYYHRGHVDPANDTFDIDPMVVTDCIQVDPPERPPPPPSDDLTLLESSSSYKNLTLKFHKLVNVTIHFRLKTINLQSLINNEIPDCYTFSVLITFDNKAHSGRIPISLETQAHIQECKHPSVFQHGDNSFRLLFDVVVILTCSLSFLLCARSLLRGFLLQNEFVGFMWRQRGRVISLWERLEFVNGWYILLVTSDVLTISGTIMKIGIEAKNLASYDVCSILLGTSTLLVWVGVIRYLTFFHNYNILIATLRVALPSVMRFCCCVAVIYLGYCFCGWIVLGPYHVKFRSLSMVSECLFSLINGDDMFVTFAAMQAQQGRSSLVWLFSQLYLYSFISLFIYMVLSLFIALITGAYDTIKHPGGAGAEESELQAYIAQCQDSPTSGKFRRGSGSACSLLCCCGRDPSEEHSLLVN
#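 Calcium fluorescence in TRPML1-DL cells induced overnight with Tet: a 110 s read after compound pin addition, then a 110 s antagonist read after challenge with 54-4 at 4 uM final (EC80).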
# TRPML1 agonist – activates the human TRPML1 channel; activation, % (concentration not given with the values); Q9GZU1; TRPML1-expressing cells, Ca2+ dye fluorescence, FDSS; host cell line not named in the record; reference of the full effect not given here; actives 0.12% (n = 410,000); in the data active = activation above about 50%; inconclusive = about 30% to 50%; inactive = below about 30%; also: 0% is about no effect; the text of the record puts the active cut at 80%
#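 In this qHTS format, compounds were pin-transferred onto Ca8-dye-loaded TRPML1-DL cells induced with Tet overnight, and intracellular Ca2+ fluorescence was recorded kinetically for 110 s after a 10 s baseline. A subsequent 4uM final 54-4 (EC80) addition followed by a second 110 s read served as the antagonist phase.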
# TRPV1 PAM – human TRPV1 potentiation | Q8NER1 | TRPV1-expressing cells, Fluo-8 calcium influx, capsaicin EC20 potentiation; host cell line not named in the record; control for the full effect not named in the record | potentiation, % at 8.33 µM | actives 0.02% (n = 320,000); active means potentiation above 80%; inconclusive means 30% to 80%; inactive means below 30%; also: 0% is about no effect
#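 Fluo-8 calcium influx in TRPV1-expressing cells, kinetic read (ex 480/em 520 nm). Compound added and read 3 min for agonist activity, followed by capsaicin at EC20 final and 2 min further read for enhancement.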
# CtBP-E1A inh – inhibitors of CtBP/E1A interaction; activity change, % (concentration not given with the values); AID 651724; AlphaScreen GST-E1A/His-CtBP binding, 1536-well; active compounds read low; control for the full effect not named in the record; actives 0.49% (n = 340,000); in the data active means activity change below about -65%; inconclusive means about -30% to -65%; inactive means above about -30%; also: % is scaled to controls: 0 for no effect and ±100 for the full control effect
#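 Homogeneous bead-based format: GST-tagged E1A captured on glutathione donor beads, His-tagged CtBP on nickel acceptor beads; compounds precede bead addition by 2 h at 37 °C.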
# Six1-Eya2 blk – blocks human Six1 binding to Eya2 | AlphaScreen GST-Six1/His-Eya2 binding, biochemical; active compounds read low; control for the full effect not named in the record | activity change, % (test concentration not listed) | actives 0.56% (n = 360,000) | AID 651725; in the data active = activity change below about -65%; inconclusive = about -30% to -65%; inactive = above about -30%; also: % is scaled to controls: 0 for no effect and ±100 for the full control effect
#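 AlphaScreen with GST-Six1 and His-Eya2 (5X mix: 250 nM and 500 nM), glutathione donor and nickel acceptor beads; buffer 50 mM Tris pH 8.0, 300 mM NaCl, 1 mM TCEP; 1 h at 37 C in the dark.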
# D2 potentiator – potentiates the human D2 dopamine receptor allosterically | DiscoveRx D2 beta-arrestin cells, luminescence, 90 min; 100% = 57 uM dopamine signal | potentiation, % (concentration not given with the values) | actives 0.23% (n = 360,000) | AID 624464; active = potentiation of 50% or more; inconclusive = 30% to 50%; inactive = 30% or less;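 also: compound concentration not given in the record; tested on top of an EC20 dose of dopamine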
# Target sequence (P14416 whole entry, looked up): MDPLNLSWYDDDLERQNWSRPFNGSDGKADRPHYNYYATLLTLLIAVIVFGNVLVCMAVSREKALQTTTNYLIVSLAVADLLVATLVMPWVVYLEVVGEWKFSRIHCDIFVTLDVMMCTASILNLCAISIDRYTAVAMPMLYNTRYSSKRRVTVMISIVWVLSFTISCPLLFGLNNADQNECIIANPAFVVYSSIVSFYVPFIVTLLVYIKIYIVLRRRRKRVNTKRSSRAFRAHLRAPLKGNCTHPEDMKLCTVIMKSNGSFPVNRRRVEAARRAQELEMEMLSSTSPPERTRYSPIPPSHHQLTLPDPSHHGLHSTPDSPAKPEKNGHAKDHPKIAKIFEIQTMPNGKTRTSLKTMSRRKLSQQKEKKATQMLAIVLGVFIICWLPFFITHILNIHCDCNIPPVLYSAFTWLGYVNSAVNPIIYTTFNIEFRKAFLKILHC
#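 PathHunter beta-arrestin assay in DiscoveRx D2 cells. Compounds were added with an EC20 of dopamine (50 nM final) for 90 min at 37 deg C. Luminescence was read 1 h after detection reagent, with 57 uM dopamine as the EC100 control.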
# Active calls of the source: *; ? = inconclusive; . = no result given; & = joins results of further samples.
SMILES,TRPML1 blocker,TRPML1 agonist,TRPV1 PAM,CtBP-E1A inh,Six1-Eya2 blk,D2 potentiator
Cc1nn(CC(=O)N/N=C/c2ccc(F)cc2)c(C)c1[N+](=O)[O-],9,0.3,.,4,1,-7
FC(F)(F)c1cc(CCN2C(=S)NC[C@@H]2Cc2ccccc2)cc(C(F)(F)F)c1,-7,-1.2,-12,7,1,-8
O=C(CCOc1ccc(F)cc1)Nc1nccs1,12,0.9,-4,3,1,1
Nc1ncnc2c1ncn2[C@@H]1O[C@H](CNC(=O)[C@@H](N)Cc2ccccc2)[C@@H](O)[C@H]1O,-16,0.3,.,3,9,.
Cc1ccsc1/C=N/N1CCN(Cc2ccccc2)CC1,17,0.4,0,-15,-18,-21
O=C(O)CCCC(=O)NNc1ncnc2ccccc12,-26,0.9,6,4,7,-6
CCOC(=O)c1ccc(N2CCN(C(=O)c3ccccc3)CC2)c(NC(=O)c2ccco2)c1,65,1.3,9,-13,-4,0
O=C(NNC(=S)Nc1ccc(F)cc1)C1[C@H]2CCCC[C@@H]12 (stereo not given in full),-12,0.7,2,2,16,-9
O=C(c1[nH]c(C(F)(F)F)nc1-c1ccccc1)N1CCN(c2ncccn2)CC1,4,0.0,.,0,0,-4
COc1ccc(S(=O)(=O)N2CCC(C(=O)N[C@@H](C)C(=O)NCc3ccco3)CC2)cc1,-7,-0.3,.,-4,2,-4
O=C(CCS(=O)(=O)c1ccccc1Cl)NCCC1=CCCCC1,7,0.2,-10,-2,0,-15
CCCC(=O)N1CCN(c2ccc([N+](=O)[O-])cc2Cl)CC1,2,0.2,-9,-2,2,1
Cc1cc(O)c(C(=O)c2ccccc2C(=O)O)cc1C,0,0.6,?,-7,1,-4
O=C(Oc1cccc(NC2=NS(=O)(=O)c3ccccc32)c1)c1ccncc1,8,2.3,4,.,-10,-39
COc1ccc(/C=N/N2CCN(C)CC2)cc1OC,16,0.8,-4,0,0,9
CSc1ccccc1NC(=O)c1cc(S(=O)(=O)N(C)C)ccc1N1CCCC1,4,3.9,-2,-3,0,3
CCOCc1cnc(C)nc1NCC(=O)c1c(C)n(C)c2ccc(OC)cc12,11,-0.3,0,-4,-2,-44
COc1ccc(S(=O)(=O)N2CCC(C(=O)NCCc3ccc(OC)c(OC)c3)CC2)cc1,-4,-0.2,.,-8,-9,-8
COc1cc(S(=O)(=O)N(C)Cc2ccc3c(c2)OCCO3)ccc1NC(C)=O,-2,0.8,-7,2,2,-3
CCSc1ncc(Cl)c(C(=O)Nc2cc(C)ccc2C)n1,9,0.4,.,-2,3,-6

# Five compounds drawn at random from the list so far:
SMILES,TRPML1 blocker,TRPML1 agonist,TRPV1 PAM,CtBP-E1A inh,Six1-Eya2 blk,D2 potentiator
O=C(CCS(=O)(=O)c1ccccc1Cl)NCCC1=CCCCC1,7,0.2,-10,-2,0,-15
CCOCc1cnc(C)nc1NCC(=O)c1c(C)n(C)c2ccc(OC)cc12,11,-0.3,0,-4,-2,-44
CSc1ccccc1NC(=O)c1cc(S(=O)(=O)N(C)C)ccc1N1CCCC1,4,3.9,-2,-3,0,3
CCSc1ncc(Cl)c(C(=O)Nc2cc(C)ccc2C)n1,9,0.4,.,-2,3,-6
COc1ccc(S(=O)(=O)N2CCC(C(=O)NCCc3ccc(OC)c(OC)c3)CC2)cc1,-4,-0.2,.,-8,-9,-8

# Continuation.
SMILES,TRPML1 blocker,TRPML1 agonist,TRPV1 PAM,CtBP-E1A inh,Six1-Eya2 blk,D2 potentiator
Cc1ccc2oc(C(=O)NCCCN3CCOCC3)c(C)c2c1,-6,-0.2,9,7,0,4
O=C(Cc1cccs1)N(CC1CCCO1)C1(C(=O)NC2CCCCC2)CCCCC1 (stereo not given),13,-0.4,-20,16,-6,1
COc1ccc(OCC(=O)Nc2cc(NC(=O)COc3ccc(OC)cc3)cc(C(=O)O)c2)cc1,19,-0.6,?,.,-3,11
CCOC(=O)CSc1nnc2cc(C)c3ccccc3n12,14,-0.6,2,1,-19,-3
O=C(N/C(=C\c1ccccc1)C(=O)N1CCOCC1)c1ccc(Br)o1,-1,0.6,-1,-16,-9,-6
CCC(C)(C)C1CCc2[nH]nc(C(=O)N/N=C(\C)c3ccco3)c2C1 (stereo not given),-11,0.8,-3,-23,-8,-6
Cc1cc(S(=O)(=O)NCCc2ccccc2)ccc1-n1cnnn1,7,-0.4,-8,7,-5,-1
COc1cccc(C2C(C#N)=C(N)OC(C(C)(C)C)=C2C#N)c1 (stereo not given),13,-0.8,2,-1,-17,1
CC1(C)OC(=O)C2(Cc3ccccc3N3CCCC32)C(=O)O1 (stereo not given),39,0.2,2,.,.,.
COc1ccccc1NS(=O)(=O)c1cccc(NC(=O)Nc2cccc(Cl)c2)c1,-2,2.7,12,-3,-14,-8
O=C1CCCC2=C1C(c1ccc(O)c(O)c1)Nc1ccc3ccccc3c12 (stereo not given),3,0.0,.,1,-3,4
C=CCc1ccc(OCC(O)CN2CCN(Cc3ccc(Cl)cc3)CC2)c(OC)c1 (stereo not given),-2,2.1,-1,-12,-23,-29
O=C(NNc1nc2ccc(Cl)cc2s1)c1cc(-c2cccs2)nc2ccccc12,-13,-0.5,2,-2,-9,5
COC(=O)c1cc(C)sc1NC(=O)CSc1ncccn1,7,-0.2,-12,6,-3,-2
CCN(CC)CCNC(=O)c1ccc(NC(=O)c2cc(S(=O)(=O)N3CCCCC3)ccc2C)cc1,-2,-0.7,14,15,-2,-20
COc1ccc(-c2cc(=O)oc3cc(OCC(=O)N(C)C)ccc23)cc1,-18,1.3,3,8,-2,-1
O=C(CSc1nnc(CNc2cccc(C(F)(F)F)c2)n1Cc1ccco1)NCc1ccco1,-6,-0.7,5,-2,-2,-4
CC[n+]1c(C)cc2c(sc3ccccc32)c1C,5,-0.2,6,6,-4,-12
CCOC(=O)CN(C#N)c1nc(C)cc(C)n1,-4,1.7,11,4,1,-34
O=C(CC1N=C(Cc2ccccc2)NNC1=O)N/N=C/c1ccc([N+](=O)[O-])cc1 (stereo not given),-4,-1.4,8,2,-2,-14
CCOC(=O)[C@H]1[C@H]2COc3ccc(Cl)cc3[C@@H]2N2C(=O)[C@@H](CO)NC(=O)[C@@]12C,10,-0.5,.,1,-5,-4
CC(C)(C)c1nn(-c2ccccc2)c2[nH]c(=O)c(CNCc3ccco3)cc12,8,-0.3,13,7,-5,-21
CCCN(CCC)CCN1C(=O)C2C(C(=O)Nc3ccc(C)cc3)C3C=CC2(O3)C1C(=O)NC1CCCCC1 (stereo not given),46,0.7,3,0,2,-5
COc1cc(NS(=O)(=O)c2ccc(NC(=S)NC(=O)c3cccs3)cc2)nc(OC)n1,-11,-0.4,-1,1,-20,-24
CC(C)(C)c1cnnn1-c1ccc(/C=N/Nc2ccc([N+](=O)[O-])cc2)cc1,59,1.7,3,0,0,-4
CCOC(=O)/C(=N\Nc1ccc(OC)cc1)c1csc(Nc2ccccc2)n1,3,1.3,7,8,-22,-1
Cc1nnc(SCC(=O)NCc2ccc3c(c2)OCO3)[nH]c1=O,-5,-0.3,-2,7,3,-5
COCc1cccc(-c2csc(C(NC(C)=O)c3cccc(OC)c3)n2)c1 (stereo not given),1,-0.2,.,3,4,-3
Cc1ccc(NC(=O)CSc2ccc(-c3ccccn3)nn2)cc1F,-4&-13,0.5&4.4,0,?,?,-3
CCOC(=O)C1CCCN(C(=O)/C=C/c2ccc(OC)cc2)C1 (stereo not given),10,-0.3,13,.,2,-9
N#Cc1ccsc1NC(=O)CN1CCOCC1,44,-0.5,-5,1,0,-3
O=C(c1cccc(F)c1)N1CCN(C(=O)c2cc3ncc(Br)cn3n2)CC1,-17,0.4,2,-2,3,-6
COc1ccc(CNC2CCCc3ccccc32)c(OC)c1 (stereo not given),-9,-0.3,-3,-4,-4,-22
O=C(Nc1c2c(nn1-c1ccc(F)cc1)CS(=O)(=O)C2)c1ccc(S(=O)(=O)N2CCOCC2)cc1,6,0.0,10,4,5,-7
CCC1(CC)NC(=O)N(CC(=O)OCC(=O)c2cc(C)c(C)cc2C)C1=O,15,-0.6,2,9,-3,-16
CCOC1(OCC)N=C(N)C2(C#N)C(c3ccc(NC(C)=O)cc3)C12C#N (stereo not given),-19,1.3,5,-20,-1,-2
O=C(Nc1ccc(Cl)cc1Cl)c1ccc2ncsc2c1,-14,-0.4,4,2,6,-46
O=C(Nc1nc2ccccc2[nH]1)NC1CCCCC1,-13,0.8,-1,-5,-4,-12
CCOC(=O)c1c(-n2cnnn2)sc2c1CCCC2,-9,3.0,-23,7,6,-3
CC(=O)c1cccc(NCC(=O)Nc2cc(S(=O)(=O)N3CCCCC3)ccc2C)c1,-3,-0.4,-2,-2,-2,5

# 3 compounds already listed, arranged by SMILES length, descending.
SMILES,TRPML1 blocker,TRPML1 agonist,TRPV1 PAM,CtBP-E1A inh,Six1-Eya2 blk,D2 potentiator
CC(=O)c1cccc(NCC(=O)Nc2cc(S(=O)(=O)N3CCCCC3)ccc2C)c1,-3,-0.4,-2,-2,-2,5
O=C(Nc1nc2ccccc2[nH]1)NC1CCCCC1,-13,0.8,-1,-5,-4,-12
N#Cc1ccsc1NC(=O)CN1CCOCC1,44,-0.5,-5,1,0,-3

# (cont.)
SMILES,TRPML1 blocker,TRPML1 agonist,TRPV1 PAM,CtBP-E1A inh,Six1-Eya2 blk,D2 potentiator
Cc1ccc(/C=C2/NC(=O)N(c3ccccc3)C2=O)o1,12,0.6,12,5,-3,-11
CCCCNC(=O)C1(C)CCCCN1C(=O)c1sccc1C (stereo not given),.,-0.1,.,-6,-17,-6
O=C(OCc1ccccc1)N1CCC2CC1c1ccc(-c3cccc(F)c3)cc12 (stereo not given),.,1.3,.,11,23,-10
O=C(CCc1ccccc1)NNC(=S)NC(=O)c1ccc(Cl)cc1,21,8.5,-6,2,1,-13
CC(C)N(C)S(=O)(=O)c1ccc(NC(=O)C2=COCCO2)cc1,-6,-0.1,-9,-12,0,4
CCCC(CCC(=O)Nc1ccc(C(=O)OC)cc1)C(=O)O (stereo not given),-7,0.5,5,-4,9,-13
O=C(CC1C(=O)NCCN1Cc1ccccc1C(F)(F)F)NC1CCCCCC1 (stereo not given),-22,0.4,-11,-12,3,-15
Cc1ccc2c(c1)[C@H]1[C@H](CO2)[C@H](c2ccccc2)[C@]2(C)C(=O)Nc3ccc(Br)cc3C(=O)N12,8,1.2,.,.,-16,-8
COc1ccc(Cc2c(-c3ccccc3)nc3ccc(Br)cn23)c(C)c1,9,0.5,.,-2,-9,-5
O=S(=O)(Nc1ccc(-c2csc(-c3ccccc3)n2)cc1)c1ccccc1,-10,1.6,2,-12,-13,1
O=c1ccc(-c2ccc(S(=O)(=O)Nc3ccc(F)cc3)s2)n[nH]1,2,0.2,10,2,-3,1
C/C(COc1ccccc1)=N\NC(=O)c1nnn(-c2nonc2N)c1CSc1ccccc1,-30,0.5,-16,.,2,5
CC(C)C(C)(C#N)NC(=O)CSc1nc2scc(-c3ccc(F)cc3)c2c(=O)n1Cc1ccccc1 (stereo not given),-22,-0.5,10,8,1,9
O=C(CNc1cccc2ccccc12)c1ccc([N+](=O)[O-])cc1,37,0.9,-1,-13,-17,?
CCOC(=O)c1cc2sccc2n1CC(=O)O,-5,1.0,?,-2,0,8
NC(=O)c1ccc(NC(=O)C2CC(=O)N(c3ccc4c(c3)OCCO4)C2)cc1 (stereo not given),-5,-0.4,9,-10,-2,-6
Cc1cc2cc(CNC(=O)Nc3cccc(Cl)c3)ccc2n1C,8,-0.7,17,-5,-18,-5

# Compounds were not picked by outcome; overall some 0.95% were active at least once.
